Compound activity from PubChem.
GALR2 ag: agonists of human galanin receptor 2 (GALR2); GALR2-expressing cells, agonist activation read-out; activation, %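 (tested at 5 µM)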; 0.48% of 140,000 active; AID 803;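 active = above mean plus 3 SD of all compounds, about 5% in these data, not always enough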;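 note: 0% = vehicle buffer wells and 100% = reference agonist at full effect; tested in CHO reporter cells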
RGS16-Gao HTS: RGS16-Galphao interaction regulator (human); AID 1441; binding response (% of control), % at 10 µM; bead-based flow cytometry RGS16-Galphao binding, fluorescence; actives lie on both sides; 0.38% of 220,000 active; O15492+P09471;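 active = below 25% or above 175%, edge rows of some plates excepted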;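 note: Galphao activated by GDP with aluminum fluoride before binding; 100% = wells without compound and 0% = beads without RGS; some results beyond the cut were filed as inactive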
Insulin prom inh: TRM-6 insulin promoter activity inhibition; 0.9% of 130,000 active; AID 1273; TRM-6 cells (human fetal islet line), insulin promoter-eGFP reporter, imaging; reporter expression induced with tamoxifen; inhibition, % at 2 µM;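 active = inhibition above the mean plus 3 SD, with well images judged a real hit on visual review, cut at about 60% in these data, passing the limit was not always enough; inconclusive = inhibition over the cutoff but images rejected on review; inactive = inhibition not above the cutoff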
PKD1 inh: blocks activity of human protein kinase D1; Q15139; PKD1 kinase fluorescence polarization assay; inhibition, %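 (about 10 µM by stock and volumes)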; 0.056% of 200,000 active;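 active = inhibition of 50% or more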;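 note: controls were vehicle for no effect and a reference inhibitor for full effect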
Target sequence (Q15139 whole entry, looked up): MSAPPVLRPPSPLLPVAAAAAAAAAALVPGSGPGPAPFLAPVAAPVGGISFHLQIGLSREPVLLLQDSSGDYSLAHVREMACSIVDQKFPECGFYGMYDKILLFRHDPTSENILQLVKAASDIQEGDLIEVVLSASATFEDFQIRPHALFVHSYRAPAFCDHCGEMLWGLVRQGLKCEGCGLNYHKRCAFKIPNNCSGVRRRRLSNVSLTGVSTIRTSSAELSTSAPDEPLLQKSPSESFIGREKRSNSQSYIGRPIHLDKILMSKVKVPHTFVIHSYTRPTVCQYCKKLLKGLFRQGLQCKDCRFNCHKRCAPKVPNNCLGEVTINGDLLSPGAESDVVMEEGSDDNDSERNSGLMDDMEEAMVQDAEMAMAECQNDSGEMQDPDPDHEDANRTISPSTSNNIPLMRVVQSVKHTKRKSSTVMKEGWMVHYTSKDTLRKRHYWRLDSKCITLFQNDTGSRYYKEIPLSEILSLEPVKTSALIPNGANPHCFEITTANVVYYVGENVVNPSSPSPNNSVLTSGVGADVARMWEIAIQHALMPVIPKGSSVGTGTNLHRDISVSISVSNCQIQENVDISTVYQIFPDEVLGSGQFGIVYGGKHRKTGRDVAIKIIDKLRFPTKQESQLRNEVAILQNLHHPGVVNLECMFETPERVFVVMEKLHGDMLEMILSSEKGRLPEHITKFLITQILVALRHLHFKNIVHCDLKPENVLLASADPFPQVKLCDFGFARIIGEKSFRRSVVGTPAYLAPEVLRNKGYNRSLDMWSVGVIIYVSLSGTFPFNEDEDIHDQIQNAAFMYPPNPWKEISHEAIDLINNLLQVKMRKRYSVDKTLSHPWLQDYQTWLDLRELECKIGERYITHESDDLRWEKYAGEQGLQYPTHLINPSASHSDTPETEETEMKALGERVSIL
HSV augment: HSV replication enhancement; HSV replication augmentation in cells, fold increase; maximum fold increase; 0.005% of 220,000 active; AID 1956;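 active = peak rise of 1.5-fold or more in the series; inconclusive = self-fluorescent or not available for retest; tested in PC3 cells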;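 note: first round at 10 µM; read as green reporter fluorescence; hits show the peak of a series up to 25 µM; 1 = signal of infected wells without compound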
Insulin prom inh cell count: further read-out of Insulin prom inh, marked with its call; normalized cell count, %; measured here: cell count, toxicity; reference of the scale not given here;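 cells exposed to compound for 48 h; stained nuclei by imaging scaled within each plate; lower means fewer cells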
HSV augment primary fold: further read-out of HSV augment, marked with its call; fold increase; compound at 10 µM; measured here: primary screen fold increase 10 uM; tested in PC3 cells;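 GFP signal in the first replicate; 1 = infected wells without compound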
The depositor's hits bear a star; i = inactive; ? = inconclusive; nt = not tested or not shown.

SMILES	GALR2 ag	RGS16-Gao HTS	Insulin prom inh	Insulin prom inh cell count	PKD1 inh	HSV augment	HSV augment primary fold
Cc1ccc(S(=O)(=O)N(C)c2ccc(NS(C)(=O)=O)cc2)cc1	-0.2	97	-15	112	-6	i	0.98
COc1ccc(N=Cc2cc(Cl)ccc2O)cc1Cl	nt	103	nt	nt	8	i	1.2
Cn1c(=O)c2c(SCC(=O)c3ccccc3)nc(C3CC3)nc2n(C)c1=O	-2.3	108	nt	nt	-11	i	0.75
Cc1ccc(CNC(=O)Cc2ccc(-c3ccccc3)cc2)cc1	-1.5	95	4	112	1	i	0.64
Cc1ccc(OCCOc2cccc(Br)c2)c([N+](=O)[O-])n1	0.3	105	-27	84	-3	i	0.96
O=C1c2cccc3cc([N+](=O)[O-])cc(c23)C(=O)N1CCN1CCCC1	nt	99	nt	nt	nt	i	0.7
Cc1ccc(Sc2ccc(N)cn2)cc1	nt	101	nt	nt	nt	i	1.1
O=C(Nc1ccccc1C(=O)NC(Cc1c[nH]c2ccccc12)C(=O)O)c1ccco1 (centres undefined)	-0.5	112	nt	nt	2	i	0.85
CN(Cc1ccccc1)C(=O)COC(=O)CCNC(=O)c1ccccc1Cl	nt	106	nt	nt	-2	i	0.95
CCCc1nnc(SCC(=O)N2C(C)CCCC2C)n1CCCOC (centres undefined)	-0.7	98	32	38	-13	i	0.83
COc1ccc(C2CC(c3ccccc3)=NN2C(=O)COC(=O)c2cccnc2Cl)cc1 (centres undefined)	0.2	78	nt	nt	2	i	1.3
O=C(CSc1ccc(-c2ccccn2)nn1)N1CCCC1	nt	98	19	86	-1	i	0.88
Cc1nnc(C)c2c(C)n(C(C)c3ccccc3)c(C)c12 (centres undefined)	-0.8	103	-41	158	-3	i	1
CS(=O)(=O)N(CC(=O)N1CCCCC1)c1ccc2c(c1)OCO2	-3.3	98	-14	123	-6	i	0.97
C=CCN(c1ccccc1)S(=O)(=O)c1ccc(Cl)c(C(=O)OCC(=O)c2[nH]c(C)c(C(C)=O)c2C)c1	0.5	107	32	77	-7	i	0.88
COC(=O)CSc1nnc(CNC(=O)c2ccccc2F)n1-c1ccc(F)cc1	nt	109	33	144	-8	i	1.1
Cc1ccc(C(=O)c2ccc(O)cc2)cc1C	-0.8	103	-31	129	-14	i	1
O=C(O)CSc1ncnc2sc3c(c12)CCCC3	nt	111	nt	nt	-2	i	0.92
Cc1ccc(S(=O)(=O)N2CCN(C(=O)C3CCCCC3)CC2)cc1	-1.4	102	7	107	-10	i	0.81
COc1cccc(-c2ccc(C#N)c(=O)[nH]2)c1	nt	101	47	76	7	i	1
CC(=O)Nc1ccc(N/C(C)=C/C(=O)c2cccnc2)cc1	-1.1	99	37	96	-3	i	0.98
CSCC[C@H](NC(=O)NCc1ccc(F)cc1)C(=O)O	-0.9	100	nt	nt	-6	i	1
Cc1ccc(S(=O)(=O)N2CCN(c3nc(C(C)C)c4c(c3C#N)CC(C)(C)OC4)CC2)cc1	-0.7	106	-27	62	3	i	1.1
O=C(NCc1ccc(F)cc1)c1c2c(nc3ccccc13)CCC2	nt	102	nt	nt	12	i	1
CC(C)(C)c1ccc(C(=O)NCCC(=O)NCc2ccco2)cc1	-1.9	nt	nt	nt	2	i	0.99
NC1=NC(=O)C(Cc2cccc(Cl)c2)S1 (centres undefined)	-1.1	112	26	111	-5	i	0.81
CCCCC(=O)NCc1ccccc1Cl	nt	102	0	79	-17	i	0.81
Cc1ccc(C(=O)OCC(=O)NCCC2=CCCCC2)s1	-1.0	102	nt	nt	-11	i	0.99
Cc1cccc(-[n+]2c(-c3cccc(Br)c3)[nH]c3nc4ccccc4nc32)c1	nt	99	nt	nt	nt	i	0.98
COc1cc(/C=N/Nc2ccccn2)ccc1O	nt	81	nt	nt	nt	i	0.98
Cc1cc(C)c(NC(=O)CCCC(=O)O)c(Cl)c1	13*	100	8	119	-8	i	0.99
c1ccc(Cn2c(-c3ccco3)nc3nc4ccccc4nc32)cc1	1.9	95	-15	90	-4	?	nt
CCC(C)n1c(S(=O)(=O)O)nc2ccccc21 (centres undefined)	-2.3	99	-3	136	-1	i	1.1
CCOc1ccc(Nc2nc(N)c([N+](=O)[O-])c(NCc3ccccc3)n2)cc1	nt	103	nt	nt	nt	i	1
Cn1nc(-c2ccccc2)cc1NS(=O)(=O)c1ccc(C#N)cc1	nt	104	nt	nt	nt	i	1
CC(C)Oc1ccc(C(=O)/C(=C\c2cccs2)c2nc3ccccc3o2)cc1	-2.3	104	-29	100	-5	i	1
COc1ccc(N(CC2CO2)S(=O)(=O)c2ccccc2)cc1 (centres undefined)	nt	105	nt	nt	1	i	0.91
Cc1[nH]c2ccccc2c1SCC(=O)Nc1nccs1	nt	102	-6	140	-6	i	0.88
N#Cc1nc(N)nc(N(c2ccccc2)c2ccccc2)n1	-0.7	104	36	97	0	i	0.97
CNC(=S)N1CCN(C(=O)C2CCCO2)CC1 (centres undefined)	-1.6	109	29	75	-2	i	1
COc1ccccc1C(=O)C1CCCN(C(=O)c2ccccn2)C1 (centres undefined)	nt	97	nt	nt	0	i	0.95
CC(CN1CCOCC1)OC(=O)c1ccc(Br)cc1 (centres undefined)	-1.4	82	nt	nt	-3	i	0.83
CCC1=C2CC[C@H]3C(=O)N(C)C(=O)[C@H]3[C@H]2[C@@]2(Cc3ccccc3)C(=NCCOC)OC(=O)N2C1=O	nt	105	nt	nt	nt	i	1.1
O=C1c2ccccc2-c2c1cccc2C(=O)N(CCO)CCO	-0.5	101	-39	82	-10	i	0.96
Cc1cccc(NC(=O)C2C(c3ccccc3)C2(Cl)Cl)c1C (centres undefined)	-0.9	114	-13	50	-1	i	0.65
CCn1c(CCC(=O)O)nc2cc(S(=O)(=O)N(C)C)ccc21	nt	97	-20	156	-10	i	0.92
Cc1cc(=O)oc2cc(OC(=O)CCN3C(=O)c4ccccc4C3=O)ccc12	0.5	105	nt	nt	-7	i	0.68
CC(=O)Nc1cccc(NS(=O)(=O)c2cccc3nsnc23)c1	-1.9	101	nt	nt	-9	i	0.93
CCOc1ccc(C(=O)NCC(=O)OCC(=O)Nc2ccc(C)c(S(=O)(=O)N(C)C)c2)cc1	nt	99	nt	nt	-3	i	0.9
CCOC(=O)c1c(-c2ccc(C)cc2)csc1NC(=O)C1CCCO1 (centres undefined)	1.0	100	2	96	-1	i	0.98
C=CCN(C(=O)CSc1nc2[nH]ncc2c(=O)n1-c1ccccc1OC)c1ccccc1	-0.9	110	nt	nt	-3	nt	nt
COc1ccc(NC(=O)Nc2ccccc2SC)c(OC)c1	nt	96	nt	nt	-4	i	0.88
Cc1ccc(-c2nnc(-c3ccc4c(c3)OCO4)o2)cc1	nt	103	nt	nt	-4	i	0.92
CSc1ccc(CN2C(=O)NC3(CCCCCC3)C2=O)cc1	nt	99	nt	nt	-1	i	0.97
CCOc1ccc(S(=O)(=O)NCCC(=O)OCC(=O)N2CC(=O)Nc3ccccc32)cc1	nt	103	nt	nt	-3	i	0.99
O=C(Cc1ccc(Cl)cc1)Nc1ccc(NC(=O)c2ccccc2)cc1	4.1	99	nt	nt	-2	i	0.95
CNC(=S)N(C)c1ccccc1	0.8	101	-20	109	-8	i	0.93
NC1=NS(=O)(=O)NC1c1ccc(F)cc1 (centres undefined)	nt	101	14	69	-4	i	0.9
COc1ccccc1C1CCN(c2ccc(CO)cc2[N+](=O)[O-])CC1	nt	99	nt	nt	nt	i	0.97
CCOc1ccc(OCC)c(S(=O)(=O)NNC(=O)c2c(C)nc3ccccn23)c1	0.6	97	13	120	-7	i	0.93

As entered above.
GALR2 ag with CCOC(=O)c1c(-c2ccc(C)cc2)csc1NC(=O)C1CCCO1 (centres undefined) → 1.0
Insulin prom inh with CCOc1ccc(OCC)c(S(=O)(=O)NNC(=O)c2c(C)nc3ccccn23)c1 → 13
HSV augment primary fold with CCC1=C2CC[C@H]3C(=O)N(C)C(=O)[C@H]3[C@H]2[C@@]2(Cc3ccccc3)C(=NCCOC)OC(=O)N2C1=O → 1.1

Single records, as listed above.
CC(=O)Nc1cccc(NS(=O)(=O)c2cccc3nsnc23)c1 in the list: GALR2 ag = -1.9; RGS16-Gao HTS = 101; Insulin prom inh = nt; Insulin prom inh cell count = nt; PKD1 inh = -9; HSV augment = i; HSV augment primary fold = 0.93
CCCCC(=O)NCc1ccccc1Cl in the list: GALR2 ag = nt; RGS16-Gao HTS = 102; Insulin prom inh = 0; Insulin prom inh cell count = 79; PKD1 inh = -17; HSV augment = i; HSV augment primary fold = 0.81

Nothing new here: two of the compounds above.
SMILES	GALR2 ag	RGS16-Gao HTS	Insulin prom inh	Insulin prom inh cell count	PKD1 inh	HSV augment	HSV augment primary fold
COc1ccccc1C(=O)C1CCCN(C(=O)c2ccccn2)C1 (centres undefined)	nt	97	nt	nt	0	i	0.95
CC(CN1CCOCC1)OC(=O)c1ccc(Br)cc1 (centres undefined)	-1.4	82	nt	nt	-3	i	0.83

The listing continues.
SMILES	GALR2 ag	RGS16-Gao HTS	Insulin prom inh	Insulin prom inh cell count	PKD1 inh	HSV augment	HSV augment primary fold
CC(C)(C)N(Cc1ccccc1)C(=O)c1ccc2c(c1)OCCO2	-2.4	96	nt	nt	13	i	0.94
COc1ccc(CCNC(=O)Cn2nnc(-c3cccs3)n2)cc1OC	-2.5	106	33	90	5	i	0.88
Nc1cccnc1Oc1ccc(F)cc1F	nt	101	nt	nt	nt	i	0.91
COc1cccc(CN2CCN(c3nc4nonc4nc3N3CCCCC3)CC2=O)c1	nt	93	nt	nt	2	i	1.3
CS(=O)(=O)N1CC(C(=O)NC2CCCC2)Oc2ccc(Cl)cc21 (centres undefined)	-1.0	98	-17	105	-10	i	0.86
CN(Cc1cc2cc(F)ccc2[nH]1)Cc1nc(-c2cnccn2)no1	nt	96	nt	nt	10	i	1.1
Cc1ccc2c(CC(=O)N3CCN(S(=O)(=O)c4cccs4)CC3)coc2c1	-1.6	100	-31	116	5	i	0.96
O=C(N/N=C/c1cccc(OC(=O)c2ccco2)c1)c1ccc(F)cc1	-0.7	102	38	129	-7	i	0.93
CCC(=O)NCc1cc(-c2nn(C)c(=O)c3ccccc23)ccc1C	-1.2	100	-37	61	1	i	0.94
COc1ccc(/C=N/n2c(C)cc(C)c(C(N)=O)c2=O)cc1	-0.8	99	33	105	-4	i	0.95
CCC(CC)NCc1ccc2c(c1)c1ccccc1n2CC	nt	201	-73	64	-1	i	0.8
Cc1nc2ncnn2c(C)c1CCC(=O)NCc1ccccc1	-0.6	103	nt	nt	-4	i	0.87
CCCOc1ccc(C2NC(=O)NC(c3ccccc3)=C2C(C)=O)cc1OCC (centres undefined)	0.6	139	-10	89	4	i	0.95
CCOC(=O)C1CCN(C(=O)c2ccc(SC)cc2OC)CC1	-1.4	97	13	136	-5	nt	nt
Cc1ccc[n+](CC(=O)Nc2cccc([N+](=O)[O-])c2)c1	nt	103	nt	nt	-15	i	0.96
CCN1C(=O)C(CC(=O)Nc2ccccc2)N(Cc2ccccn2)C1=S (centres undefined)	nt	97	-29	101	-3	i	0.77
Cc1nn(-c2ncc(C(F)(F)F)cc2Cl)c(=O)n1-c1cccc(Cl)c1	-0.9	102	21	115	-2	nt	nt
Cc1cc(OC(=O)N2CCOCC2)cc(C)c1Cl	-1.6	92	7	94	-9	i	1
CC(C)(C)CC(=O)NC(=S)Nc1ccccc1C(F)(F)F	-1.8	111	-17	110	-6	i	0.99
CCOC(=O)c1sc(NC(=O)COc2ncnc3ccccc23)c(C(=O)OCC)c1C	0.9	105	-21	76	-4	i	0.85
Cc1cc(N2CCN(Cc3nc(-c4ccc(F)cc4)oc3C)CC2)cc(C)n1	nt	86	nt	nt	-6	i	0.94
Oc1ccc(C2N=C(c3ccccc3)NC(c3ccccc3)=N2)cc1	-1.1	98	nt	nt	-4	nt	nt
O=C(NC1CCCCC1)C(c1ccccc1)N(C(=O)c1cccs1)c1ccc2c(c1)OCO2 (centres undefined)	-0.9	103	30	69	-1	i	0.95
O=C1NC2(CCC3(CC2)OCCO3)NN1c1ccc(Cl)cc1	nt	104	-8	118	-2	nt	nt
S=C(Nc1ccccc1Cl)N1CCCCCC1	nt	96	5	107	-9	i	1.1
O=C(O)c1ccc(Cl)c(S(=O)(=O)NCc2ccco2)c1	-2.4	83	-11	137	17	i	0.98
COc1ccc(C2=NN(CN3C(=O)C(=O)c4ccccc43)C(c3cccc([N+](=O)[O-])c3)C2)cc1 (centres undefined)	nt	100	nt	nt	nt	i	0.99
CCn1c(CNc2ccc(F)cc2)nnc1SCC(=O)Nc1ccccc1OC	-3.0	101	-485	45	2	i	1
O=C(c1ccc(CS(=O)(=O)c2cccc(C(F)(F)F)c2)o1)N1CCN(c2ccccn2)CC1	-2.1	100	nt	nt	6	i	0.86
COc1ccc(NC(=S)NCCc2c[nH]c3ccc(OC)cc23)c(OC)c1	-2.0	96	nt	nt	-4	i	0.79
Cc1ccc(-c2nc(N/N=C/c3ccncc3)c3ccccc3n2)cc1	-1.4	115	13	107	1	i	0.86
